gsp antag: qHTS for Antagonists of gsp, the Etiologic Mutation Responsible for Fibrous Dysplasia/McCune-Albright Syndrome: qHTS; gsp-mutant cells, cAMP HTRF, 30 min; control for the full effect not named in the record; Potency, µM (titrated, usually from 76.9 µM), for the others: at the highest dose activity change, negative = inhibition, usual class: inhibitors; hit rate 0.4% among 340,000; AID 624288, 2012; active = falling curve of any shape with a large fitted effect; inconclusive = falling curve, mostly with a smaller effect; inactive = flat or rising curve; cell line not stated here;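 also: intracellular cAMP measured with PDE inhibitor Ro 20-1724 present during compound exposure; potency is read from the fitted curve at half-maximal effect; % is scaled to controls: 0 for no effect and ±100 for the full control effect; nearly all actives have a fitted effect of over 65% in size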
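Measurement of cellular cAMP by homogeneous time-resolved fluorescence following a 30 min compound exposure at 37C. The PDE inhibitor […] was present throughout; the assay buffer was DPBS with 0.05% BSA and 0.005% Tween 20.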
Menin MLL FP FL: qHTS Assay for Inhibitors Targeting the Menin-MLL Interaction in MLL Related Leukemias: Competition With Fluorescein Labeled MLL-derived Peptide. FP activity change, % at 61.4 µM. Fluorescence polarization, fluorescein-MLL peptide displacement from menin. 290,000 tested, under 10 active; inconclusive = falling polarisation curve, or a change in total fluorescence; inactive = total fluorescence flat and polarisation flat or rising; no compound was filed as active; the % refers to the polarisation; negative = inhibition;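 also: % of control where 0% means no effect; inhibitors lower the polarisation; unlabelled MLL peptide was the positive control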
TRPML1 inh: qHTS for Inhibitors of the Human Mucolipin Transient Receptor Potential 1 (TRPML1). Mucolipin-1 (Homo sapiens), Q9GZU1. activity change, negative = inhibition, % (test concentration not listed). hit rate 0.02% among 390,000. TRPML1-inducible cells, Ca2+ dye fluorescence, FDSS; stronger effect = lower value; inhibition of EC80 agonist-evoked calcium signal; in the data active means activity change below about -50%; inconclusive means about -30% to -50%; inactive means above about -30%;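 also: stimulus is agonist 54-4 at its EC80 concentration; % is scaled to controls: 0 for no effect and ±100 for the full control effect; compound concentration not given in the record; the text of the record puts the active cut at -80%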
Target sequence (Q9GZU1 whole entry, looked up): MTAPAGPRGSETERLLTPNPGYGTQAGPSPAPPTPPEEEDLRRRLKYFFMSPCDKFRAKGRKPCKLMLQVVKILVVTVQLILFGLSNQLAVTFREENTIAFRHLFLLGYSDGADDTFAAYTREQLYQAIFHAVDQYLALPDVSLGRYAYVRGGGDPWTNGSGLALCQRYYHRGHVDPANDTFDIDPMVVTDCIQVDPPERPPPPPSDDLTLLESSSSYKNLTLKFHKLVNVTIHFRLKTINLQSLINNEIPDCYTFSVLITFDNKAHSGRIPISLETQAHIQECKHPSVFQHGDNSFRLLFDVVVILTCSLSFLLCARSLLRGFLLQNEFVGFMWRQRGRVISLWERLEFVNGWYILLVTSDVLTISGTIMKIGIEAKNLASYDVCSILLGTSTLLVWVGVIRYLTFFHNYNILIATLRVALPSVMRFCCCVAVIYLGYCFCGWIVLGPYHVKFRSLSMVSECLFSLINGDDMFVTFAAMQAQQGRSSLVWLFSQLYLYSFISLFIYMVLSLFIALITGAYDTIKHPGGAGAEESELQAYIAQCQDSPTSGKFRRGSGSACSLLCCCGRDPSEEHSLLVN
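Calcium fluorescence in TRPML1-DL cells induced overnight with Tet: a 110 s read after compound pin addition, then a 110 s antagonist read after challenge with 54-4 at 4 uM final (EC80).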
gsp agonist: qHTS for Agonist of gsp, the Etiologic Mutation Responsible for Fibrous Dysplasia/McCune-Albright Syndrome: qHTS; gsp mutant cells, cAMP HTRF, 30 min; control for the full effect not named in the record; Potency, µM (doses to about 76.9 µM), for inactives: at the top dose activation (cAMP increase), usual class: activators; hit rate 0.13% among 340,000; AID 624287, 2012; active = well fitted activation curve with a large enough effect; inconclusive = small, poorly fitted or top-dose-only effect, or another doubt; inactive = no such curve, though single readings can be large or run the other way; cell line not stated here;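 also: phosphodiesterase inhibitor Ro 20-1724 added with compounds to block cAMP breakdown; potency is read from the fitted curve at half-maximal effect; nearly all actives have a fitted effect of over 60% in size; about a fifth of the inactives were tested at one dose only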
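Cells in DMEM/10% FBS with G418 were pretreated with compounds in DMSO plus […] (300 uM stock) for 30 min at 37C. cAMP was measured by HTRF (cAMP-d2 plus anti-cAMP antibody-K) after 30 min at room temperature.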
ClpP mod: qHTS Assay for Activators of ClpP | ATP-dependent Clp protease proteolytic subunit (Bacillus subtilis (strain 168)), P80244 | purified B. subtilis ClpP, FRET peptide cleavage, 20 min | Potency, µM (top dose mostly 57.5 µM), for the others: top-dose activity change, negative = active | hit rate 1.9% among 340,000 | AID 651965, 2013; active = well fitted falling curve with a large enough effect; inconclusive = small, poorly fitted or top-dose-only effect; inactive = no such curve, though single readings can be large or run the other way; also: potency is read from the fitted curve at half-maximal effect; the source files actives as falling curves though it sought activators and does not explain the sign; nearly all actives have a fitted effect of over 65% in size; many hits overshoot -100%
Target sequence (P80244 whole entry, looked up): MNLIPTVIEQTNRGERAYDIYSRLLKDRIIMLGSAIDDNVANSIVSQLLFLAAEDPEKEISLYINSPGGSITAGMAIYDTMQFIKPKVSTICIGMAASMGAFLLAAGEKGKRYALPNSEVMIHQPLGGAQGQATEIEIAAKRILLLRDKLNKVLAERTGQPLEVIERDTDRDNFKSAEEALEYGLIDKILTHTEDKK
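ClpP 10 microg/mL final, pH 8 Tris/KCl buffer with BSA, glycerol, Tween-20; compound pinned in; FRET-FV substrate; RT 20 min; Ex320/Em430; ΔFRET vs ADEP 5.8 microM, DMSO, no enzyme.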
TRPML1 ag: qHTS for Agonists of the Human Mucolipin Transient Receptor Potential 1 (TRPML1) | Mucolipin-1 (Homo sapiens), Q9GZU1 | TRPML1-expressing cells, Ca2+ dye fluorescence, FDSS; host cell line not named in the record; reference of the full effect not given here | activation, % (test concentration not listed) | hit rate 0.12% among 410,000; in the data active = activation above about 50%; inconclusive = about 30% to 50%; inactive = below about 30%; also: 0% is about no effect; the text of the record puts the active cut at 80%
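TRPML1-DL cells, Tet-induced overnight (~16 h, 37 degrees C), loaded 45-90 min at room temperature with Ca8 no-wash calcium dye plus quencher. FDSS fluorescence: 10 s baseline, compound pin-transfer, 110 s agonist read, then EC80 54-4 (4uM final) and 110 s antagonist read.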
* marks the source's active call; other numbers are inactive results; ? = inconclusive; . = no result given; [ ] = remark or other dose.

Sample of the layout:
| SMILES | TRPML1 ag | TRPML1 inh | ClpP mod | gsp agonist | gsp antag | Menin MLL FP FL |
| --- | --- | --- | --- | --- | --- | --- |
| O=c1[nH]c(=O)n(C2C[C@H](O)[C@@H](CO)O2)cc1C(F)(F)F (some centres not stated) | 0.1 | -5 | -1.3% | . | 4% | -1.4 |
| Cc1c(N2C(=O)/C(=C\c3ccccc3O)SC2=S)c(=O)n(-c2ccccc2)n1C | -0.3 | 3 | 2.9% | -14% | -8% | ? |
| COc1ccc(-c2c(C)sc(NC(=O)c3ccnn3C)c2C#N)cc1 | 0.0 | -4 | 5.1% | 5%[15.4 µM] | 7% | 2.4 |
| Cc1ccsc1/C=N/NC(=O)CNC(=O)c1ccc(S(=O)(=O)N(C)C)cc1 | 0.9 | -5 | -3.1% | 5% | -5% | -0.5 |

Main list, repeating the preview:
| SMILES | TRPML1 ag | TRPML1 inh | ClpP mod | gsp agonist | gsp antag | Menin MLL FP FL |
| --- | --- | --- | --- | --- | --- | --- |
| O=c1[nH]c(=O)n(C2C[C@H](O)[C@@H](CO)O2)cc1C(F)(F)F (some centres not stated) | 0.1 | -5 | -1.3% | . | 4% | -1.4 |
| Cc1c(N2C(=O)/C(=C\c3ccccc3O)SC2=S)c(=O)n(-c2ccccc2)n1C | -0.3 | 3 | 2.9% | -14% | -8% | ? |
| COc1ccc(-c2c(C)sc(NC(=O)c3ccnn3C)c2C#N)cc1 | 0.0 | -4 | 5.1% | 5%[15.4 µM] | 7% | 2.4 |
| Cc1ccsc1/C=N/NC(=O)CNC(=O)c1ccc(S(=O)(=O)N(C)C)cc1 | 0.9 | -5 | -3.1% | 5% | -5% | -0.5 |
| CC(C)C[C@H](NC(=O)OC(C)(C)C)C(=O)N[C@@H](CO)[C@H](O)[C@@H]1C[C@@H]1C(=O)NC1CC1 | -0.4 | -10 | -0.8% | 5% | 6% | 4.4 |
| CC(NC(=O)C(C)N1CCN(Cc2ccccc2)CC1)c1ccc(F)cc1 (configuration not stated) | -0.6 | -6 | . | -20%[15.4 µM] | 7% | 1.6 |
| C=C(CO)C1Cc2cc(C(C)=O)ccc2O1 (configuration not stated) | -0.2 | -7 | -2.8% | -26% | 3% | 5.2 |
| O=C(Nc1ccc(-c2cccc(F)c2)cc1)C1CCCN(Cc2ccccn2)C1 (configuration not stated) | 0.2 | 14 | -0.6% | -29% | 2% | 2.9 |
| COc1cccc(C2=NN(S(C)(=O)=O)C(c3cn(-c4ccccc4)nc3-c3cccs3)C2)c1 (configuration not stated) | 0.1 | 6 | ? | . | . | . |
| COc1ccc(CCNC(=O)Cn2c(=O)n(CC3CCCO3)c(=O)c3cc(OC)c(OC)cc32)cc1OC (configuration not stated) | 0.5 | -19 | -20% | -23% | -13% | 0.0 |
| Cc1cccc(CSc2ncc(CO)n2C)c1 | -0.1 | 0 | -2.0% | -65%[inhibitor] | -6% | 1.7 |
| CCc1ccccc1Nc1nc(N)nc(CSCC(=O)c2cc(C)n(C)c2C)n1 | -0.8 | -17 | -0.6% | 3% | 0% | 6.7 |
| CC1CCCC(C)N1C(=O)CN1C(=O)NC2(CCCCCC2)C1=O (configuration not stated) | -0.2 | -7 | -0.1% | 0% | . | . |
| Cc1cc(O)ccc1N1C(=O)c2cccc3cc([N+](=O)[O-])cc(c23)C1=O | -0.9 | 3 | . | ? | -14% | 5.3 |
| O=C(CNS(=O)(=O)c1ccc(C(=O)N2CCOCC2)cc1)N1CCOCC1 | 0.1 | -6 | -0.9% | -4% | 15% | 0.1 |
| O=c1[nH]c(SCc2ccccc2Cl)nc2[nH]ncc12 | 2.6 | -11 | . | 1%[15.4 µM] | 16% | -4.8 |
| O=[N+]([O-])c1ccc2c(c1)C(N1CCOCC1)/C(=C/COc1ccc(F)cc1)O2 (configuration not stated) | -0.1 | 12 | 0.7% | ? | -1% | 0.4 |
| COc1ccc(N2C(=O)CCC(C(=O)O)C2c2ccc(F)cc2)cc1 (configuration not stated) | 3.7 | -3 | -2.3% | 0% | 6% | 4.2 |
| Cc1csc(NC(=O)CSc2nnc(C)s2)n1 | -1.0 | 13 | -0.6% | -40%[inhibitor] | 1% | 2.3 |
| O=C(O)CSc1ncnc2c1oc1ccccc12 | 0.0 | 16 | -4.3% | 2% | 2% | 1.7 |
| CN(Cc1ccccc1)C(=O)c1cccc(NC(=O)Cc2cccc([N+](=O)[O-])c2)c1 | -0.5 | -10 | 1.4% | 48% | ? | . |
| COc1cc(C(=O)OCC(=O)NC(=O)C2CCCCC2)ccc1OC(F)F | 2.5 | -25 | -0.2% | -112%[inhibitor] | 4% | 2.1 |
| O=C(NCCO)c1ccc2nc(-c3ccco3)c(-c3ccco3)nc2c1 | 0.4 | -10 | 0.8% | -1%[15.4 µM] | -26% | -0.1 |
| COc1cc2c(cc1OC)C1CCc3cc4c(cc3C1N=C2)OCO4 (configuration not stated) | -0.7 | 3 | -11% | 21% | . | . |
| Cn1cc(S(=O)(=O)N2CCCCCC2)cc1C(=O)N1CCN(c2cccc(Cl)c2)CC1 | 0.2 | -12 | -2.4% | . | . | . |
| COc1ccc(NC(=O)CSc2ccc(-c3cccnc3)nn2)c(OC)c1 | 0.4 | 21 | 0.3% | -5% | -1% | 0.2 |
| O=C(Nc1cccc(Cl)c1Cl)c1snnc1-c1ccccc1 | 1.2 | 37 | -1.8% | -28% | -9% | 2.1 |
| Cc1ccc(C)c(OCCn2c(C3CC(=O)N(Cc4ccc(F)cc4)C3)nc3ccccc32)c1 (configuration not stated) | -0.2 | 10 | -5.2% | . | . | . |
| CCOC(=O)Nc1ccc(C(=O)c2ccncc2)cc1 | 1.6 | -11 | 1.0% | -13% | ? | -2.9 |
| Cc1ccccc1Cn1cc(S(=O)(=O)c2ccc(Cl)cc2)c(=O)c2cc3c(cc21)OCO3 | -0.2 | -2 | -8.3% | . | . | . |
| Cc1occc1C(=O)NCc1cccs1 | -0.8 | 1 | -15% | -1% | 6% | 0.0 |
| Cc1cc(C(F)(F)F)c2c(=O)[nH]c(=O)n(Cc3ccccc3)c2n1 | -0.2 | 8 | -0.3% | -7% | 9% | -3.3 |
| O=C(COC(=O)c1ccccc1Cl)Nc1ccc2[nH]c(=O)[nH]c2c1 | 0.2 | -17 | . | -2%[15.4 µM] | 11% | . |
| Cc1ccc(C(=O)CSc2nc3cc(S(=O)(=O)N4CCOCC4)ccc3o2)cc1 | 0.3 | -15 | -1.9% | -32%[inhibitor] | 11% | 4.7 |
| O=C(NCc1ccc2c(c1)OCO2)c1ccc2c(c1)N(Cc1ccccc1F)C(=O)c1ccccc1S2=O (configuration not stated) | -0.8 | 2 | -2.7% | . | . | . |
| O=C(c1cnsn1)N1CCN(c2ccccn2)CC1 | -0.8 | -9 | -0.9% | 28% | 1% | 0.3 |
| COc1ccc(NC(=O)c2cc3ccccc3cc2OC)cc1OC | ? | -10 | -1.4% | -2% | -19% | -1.5 |
| O=C(Cc1csc(Nc2nc(=S)[nH]c3ccccc23)n1)NCc1cccc(Cl)c1 | -0.1 | 4 | 2.9% | 42% | -10% | 2.7 |
| CC1CCCN(Cc2csc(N)n2)C1 (configuration not stated) | 0.7 | -22 | . | -34%[inhibitor] | 13% | 0.6 |
| CCOC(=O)c1c(C)[nH]c(C)c1S(=O)(=O)NCC1CCN(Cc2cccc(Cl)c2)CC1 | 0.8 | -6 | 0.5% | 8% | 6% | . |
| CSc1ncccc1C(=O)OCCCC(=O)c1ccc(F)cc1 | 0.1 | 6 | 0.4% | -7%[15.4 µM] | -5% | . |
| COc1ccc(NC(=O)[C@@H](NS(=O)(=O)c2cccc(Cl)c2)C(C)C)cc1S(=O)(=O)N1CCOCC1 | 0.6 | -11 | 0.7% | 10% | 18% | . |
| CCOc1ccccc1CNC(=O)c1cc(-c2ccc(Cl)s2)nc2ccccc12 | 2.7 | -17 | 28µM* | . | . | . |
| Cc1nn(-c2ccccc2)c(C)c1-c1cc(C(=O)N/N=C/c2ccc(O)cc2)[nH]n1 | . | . | -9.8% | ? | ? | 2.5 |
| O=C(O)C1C2CCC(O2)C1C(=O)NCc1ccccc1Br (configuration not stated) | -0.6 | -2 | . | 9% | 7% | 9.5 |
| Cc1cc(/C=N/n2cnnc2)c(C)n1-c1cccc(C(=O)O)c1 | -0.3 | 0 | 1.9% | -10% | 5% | 0.3 |
| Cc1cc([N+](=O)[O-])nn1Cc1ccc(C(=O)N/N=C/c2ccc(O)cc2O)cc1 | -0.4 | 1 | -0.8% | 7% | -11% | . |
| O=C(NCc1cccs1)C1Cc2c(-c3ccccc3Oc3ccccc3)ccnc2O1 (configuration not stated) | -0.2 | 25 | 0.6% | . | . | . |
| Cc1ccc(Cl)cc1NC(=S)NCCCSC1CCCCC1 | 3.4 | 26 | . | -30%[15.4 µM] | 0% | -0.4 |
| COc1c(C(=O)N2CCCC2)ccc2ccccc12 | -0.7 | 4 | -0.5% | 2% | 2% | 1.3 |

(continued)
| SMILES | TRPML1 ag | TRPML1 inh | ClpP mod | gsp agonist | gsp antag | Menin MLL FP FL |
| --- | --- | --- | --- | --- | --- | --- |
| CC(C)CC(=O)N1CCC(O)(CS(=O)(=O)Cc2ccccc2)CC1 | -1.0 | 8 | -2.5% | -55%[inhibitor] | 10% | -0.6 |
| CC12CCC(=O)N1C(C(=O)Nc1cc(S(=O)(=O)N3CCCCCC3)ccc1OCC(F)(F)F)CS2 (configuration not stated) | 2.4 | 24 | 1.3% | 19% | 0% | 3.7 |
| Cc1ccc(S(=O)(=O)N2CCCCC2)cc1C(=O)NC1CCCCC1 | -0.5 | 27 | . | 4%[15.4 µM] | -14% | -0.5 |
| COCCCN1C(=O)C(CC(=O)NCCCCc2ccccc2)CC(C(=O)N2CCOCC2)=C1C (configuration not stated) | -0.2 | -11 | 2.1% | ? | . | . |
| Cc1ccc(OC(C)C(=O)N2CCN(c3ccccn3)CC2)cc1 (configuration not stated) | 0.1 | -23 | . | 3%[15.4 µM] | 7% | . |
| COc1cc2ccccc2cc1C(=O)Nc1ccc2oc(-c3ccc(F)cc3Cl)nc2c1 | 0.9 | -5 | -19% | . | . | . |
| Cc1ccc2c(COC(=O)c3ccccc3Cl)cc(=O)oc2c1 | 0.8 | 50 | . | 20% | 0% | -2.3 |
| O=C(c1cccc(Cl)c1)N1CCC(=O)N([C@H](COCc2cccc(Cl)c2)Cc2ccccc2)CC1 | 1.0 | . | 4.8% | . | . | 2.4 |

Assay outcomes (PubChem BioAssay)
